GIV-Gai inh = inhibitors of GIV peptide binding to Galpha-i3, primary screen, biochemical, fluorescence polarization, FITC-GIV GBA peptide, rat Galphai3; percent of control (FP), % (test concentration not listed); 0.42% of 210,000 active; 90 min; stronger effect = lower value; scaled: aluminum fluoride 0%, vehicle 100%; AID 1224905, 2016; Guanine nucleotide-binding protein G(i) subunit alpha-3 (Rattus norvegicus), P08753;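 active = replicate mean at 85% of control or lower, very high polarization wells dropped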;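 also: wells of about 15 µL received 100 nL stock; the first replicate is given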
Target sequence (P08753 whole entry, looked up): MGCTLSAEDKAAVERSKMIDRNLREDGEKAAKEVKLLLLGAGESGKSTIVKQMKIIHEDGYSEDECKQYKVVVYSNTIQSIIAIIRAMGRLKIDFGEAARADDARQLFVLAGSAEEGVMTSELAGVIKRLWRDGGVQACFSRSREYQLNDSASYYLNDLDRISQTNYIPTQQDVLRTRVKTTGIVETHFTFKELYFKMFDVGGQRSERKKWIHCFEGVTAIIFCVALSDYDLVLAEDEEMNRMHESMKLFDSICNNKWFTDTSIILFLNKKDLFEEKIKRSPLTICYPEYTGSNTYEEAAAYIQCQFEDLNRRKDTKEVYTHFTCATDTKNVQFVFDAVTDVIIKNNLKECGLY
HCMV UL50-53 inh = inhibitors of HCMV UL50-UL53 interaction, biochemical, HTRF; HCMV UL50-UL53 nuclear egress complex (human cytomegalovirus); AID 1918969, 2023; 0.15% of 190,000 active; inhibition, % (concentration not given with the values); normalized percent inhibition;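 active = both replicates at 50% or more, plus weaker picks with an unusually low signal ratio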;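 also: stock transfer was 100 nL into about 20 µL; 0% = negative control wells and 100% = wells with untagged competitor protein; inactives centre near -12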
Sa growth 42C = S. aureus growth inhibition at 42 and 30 °C, primary screen, LtaS inhibitor project, RN4220, two temperatures; AID 720641, 2013; relative growth, % (test concentration not listed); 0.53% of 170,000 active; OD600, 20 h, 42 °C; stronger effect = lower value;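 active = growth at 42 °C up to 50% and 20 or more points under that at 30 °C, or under 10% at both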;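 also: 300 nL library stock went into each well; scaled to the means of positive and negative controls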
Sa growth 42C second temp = also measured in Sa growth 42C; calls as there; relative growth, %; measured here: growth at 30 °C;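 optical density after 20 h as mean of two plates; 100% = untreated growth and lower means inhibition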
* marks the source's active call; other numbers are inactive results; x = no result given; & = joins results of further samples. Outcome played no part in choosing rows (roughly 0.83% active in at least one column).

SMILES | GIV-Gai inh | HCMV UL50-53 inh | Sa growth 42C | Sa growth 42C second temp
COc1ccc(C(=O)[C@@H]2[C@@H](c3ccccc3F)C(C#N)(C#N)[C@H]3C=Cc4ccccc4N23)cc1 | x | -28 | 89 | 75
Cc1ccc(NC(=O)COC(=O)C2(CC(=O)NC(C)C)CCCC2)cc1C | x | 0 | 88 | 96
C=CCn1c(NC(=O)/C=C/c2ccccc2)c(C#N)c2nc3ccccc3nc21 | x | -33 | 100 | 87
CCc1ccc(NC(=O)C2CCN(S(=O)(=O)c3c(C)[nH]c(=O)[nH]c3=O)CC2)cc1 | 105 | x | 80 | 82
COc1ccccc1N1CCN(c2nc(Nc3ccc(C)cc3)c3cnn(C)c3n2)CC1 | 103 | x | 106 | 88
C=CCn1c(C)c(/C=C/C2=CCN(C)CC2)c2ccccc21 | -11* | -66 | 135 | 54
C=CCN(CC=C)S(=O)(=O)Cc1ccccc1 | x | 5 | 106 | 95
OC1CCCCC1N1CCNCC1 (configuration not stated) | 99 | 0 | 73 | 90
CCCCNC(N)=S | x | 5 | 111 | 89
COc1ccc(NC(=O)c2cccc(NC3=NC4CS(=O)(=O)CC4S3)c2)cc1OC (configuration not stated) | 101 | -32 | x | x
CCc1ccc(-c2nn(CC(=O)NCc3ccccc3)c3c2cnc2ccc(F)cc23)cc1 | 97 | x | 113 | 91
O=C(C1COc2ccccc2O1)N(Cc1cccnc1)c1nc2c(F)cccc2s1 (configuration not stated) | 103 | x | 101 | 76
Cc1ccc2c(c1)N(C(=O)N1CCC(C(=O)NCCc3ccc(Cl)cc3)CC1)CC(C)O2 (configuration not stated) | 100 | -15 | 118 | 95
COc1cccc(Cn2c(=O)n(-c3ccc(Br)cc3F)c(=O)c3sc4ccccc4c32)c1 | 104 | 1 | 93 | 86
Cc1sc2ncnc(OCC(N)=O)c2c1C | x | -20 | 80 | 88
COc1ccc(CNC(=O)CCc2c(C)c3cc4c(C)c(C)oc4cc3oc2=O)cc1OC | 99 | 9 | 94 | 94
COc1ccccc1CNS(=O)(=O)c1cc(C(=O)Nc2cccc(C(F)(F)F)c2)ccc1F | 107 | x | 95 | 85
O=C(/C=C/Nc1cccc(C(F)(F)F)c1)c1ccco1 | 101 | -43 | 131 | 89
CC(NCCOc1ccccc1F)C(=O)Nc1ccc(S(N)(=O)=O)cc1 (configuration not stated) | x | -7 | 116 | 103
CCN(CC)S(=O)(=O)c1ccc2c(c1)N(CC(=O)N1CCN(c3ccccc3F)CC1)C(=O)CO2 | 98 | -14 | 114 | 88

Looked up above:
Sa growth 42C second temp result of `COc1ccc(C(=O)[C@@H]2[C@@H](c3ccccc3F)C(C#N)(C#N)[C@H]3C=Cc4ccccc4N23)cc1` = 75
GIV-Gai inh result of `COc1ccccc1N1CCN(c2nc(Nc3ccc(C)cc3)c3cnn(C)c3n2)CC1` = 103
Sa growth 42C result of `O=C(C1COc2ccccc2O1)N(Cc1cccnc1)c1nc2c(F)cccc2s1` (configuration not stated) = 101

The listing continues:
SMILES | GIV-Gai inh | HCMV UL50-53 inh | Sa growth 42C | Sa growth 42C second temp
O=C(O)c1coc(COCC(F)(F)F)c1 | 107 | -29 | 102 | 99
CN(C)C(=O)COC(=O)c1ccc2c(c1)OCO2 | x | 5 | 89 | 94
Cc1ccc(NC(=O)CCN2C(=O)c3ccccc3S2(=O)=O)cc1C | 104 | x | 118 | 102
O=C(Nn1cnc2ccccc2c1=O)c1cccc(Cl)c1 | 103 | -18 | 98 | 90
O=C1c2ccccc2-c2cc(=O)[nH]c3cccc1c23 | x | -49 | 97 | 69
O=C(NCCN1CCCc2ccccc21)Nc1ccc(Br)cc1F | 107 | -18 | 115 | 94
O=C(O)c1ccccc1-c1ccccc1C(=O)Nc1ccc(F)cc1 | 101 | -21 | 94 | 89
O=c1[nH]cc(S(=O)(=O)NC2CC2)c(=O)[nH]1 | 104 | -11 | x | x
CC1CCN(CC(=O)Nc2ccc(S(N)(=O)=O)cc2)CC1 | x | -5 | 109 | 101
CCN(CC)C(=O)c1sc2c(c1C)c(=O)n(CCc1ccccc1)c(=O)n2Cc1cc(C)ccc1C | 96 | x | 86 | 85
Cc1ccc(CCNc2ccccc2)cn1 | 104 | x | 82 | 88
COc1ccc(-c2nc(CN3CCC(C(=O)NCCc4ccccc4)CC3)c(C)o2)cc1OC | 106 | -34 | 103 | 85
COc1ccc(-c2noc(CC(=O)N(C)c3cccc(C)c3)n2)cc1 | 108 | x | 126 | 93
Cc1onc(-c2ccccc2Cl)c1C(O)c1ccc(F)cc1 (configuration not stated) | 104 | -25 | 101 | 87
COC(=O)c1sccc1NC(=O)c1cc(=O)n2c(nc3cc(C)c(C)cc32)s1 | 100 | -30 | x | x
O=C(CSC1=NC(=O)C(Cc2ccccc2)C(=O)N1)Nc1ccc(Br)cn1 (configuration not stated) | 102 | -15 | x | x
COc1ccc(NC(=O)CCn2c(=O)oc3ccccc32)cc1 | 104 | -13 | 95 | 95
O=C(O)c1ccc(CNCc2ccc(Cl)cc2)cc1 | 101 | x | 109 | 84
O=C(COC(=O)C1=NN(c2ccccc2)C(=O)CC1)NC1CCCC1 | x | -6 | 106 | 94
Cc1cccc(NC(=O)/C(=C\c2ccco2)NC(=O)c2cccs2)c1 | 113 | -37 | 100 | 92

Laid out differently: 2 of the compounds above
smiles	GIV-Gai inh	HCMV UL50-53 inh	Sa growth 42C	Sa growth 42C second temp
Cc1ccc(CCNc2ccccc2)cn1	104	x	82	88
COc1ccc(-c2nc(CN3CCC(C(=O)NCCc4ccccc4)CC3)c(C)o2)cc1OC	106	-34	103	85

The list continues.
SMILES | GIV-Gai inh | HCMV UL50-53 inh | Sa growth 42C | Sa growth 42C second temp
Cc1cn2c(CC(=O)O)csc2n1 | x | -7 | 98 | 87
O=C(NCc1ccccn1)c1cc2n(n1)C(C(F)(F)F)CC(c1ccco1)N2 (configuration not stated) | 102 | -43 | 103 | 79
Cc1cc(S(=O)(=O)Nc2ccc(F)c(Cl)c2)cc(C)c1F | 93 | -10 | 64 | 68
CCc1nn2c(=O)cc(CN(CC)c3ccc(OC)cc3)nc2s1 | 104 | -22 | x | x
Cc1cc(Nc2ccccc2)n(C)n1 | x | -8 | 90 | 97
Cc1ccc(C)c(N2CCN(C(=O)Cn3ncc4ccccc43)CC2)c1 | 106&112 | 2&-32 | 94 | 93
O=C1NC2(CCCCCC2)C(=O)N1CCOc1cccc(Cl)c1 | x | -24 | 84 | 85
CCCN(C(=O)C1CC1)c1nnc(-c2ccc(Cl)cc2)s1 | 102 | -15 | 117 | 98
CCn1c(-c2cc(C)n(C)n2)n[nH]c1=S | 98 | x | 113 | 80
N#Cc1c(N)sc(=S)c2c1CCCC2 | 91 | -61 | 84 | 62
COc1cc(OC)cc(C(=O)NCCSc2ccccc2)c1 | 100 | -8 | 93 | 93
O=C(O)C1CCCN(c2ncnc3c2sc2cccc(F)c23)C1 (configuration not stated) | 111 | x | 99 | 71
Cc1cc(C)nc(SCC(=O)OCc2nnc(-c3ccccc3)o2)n1 | x | -11 | 103 | 98
Cc1ccc(CN(Cc2ccco2)C(=O)COc2ccc(Cl)cc2Cl)cc1 | 107 | 15 | 82 | 91
Cc1ccc(C(=O)Nc2cc3ccccc3oc2=O)cc1 | 98 | x | 94 | 90
COc1cccc2s/c(=N/C(=S)NC(=O)c3ccc(C)cc3)n(C)c12 | 99 | x | 76 | 91
Cc1sc(N=Nc2c(O)[nH]c(=O)[nH]c2=O)c(C#N)c1C | x | -116 | 93 | 89
Cc1cc(SCC(=O)c2ccccc2)n2nc(C)nc2n1 | 107 | -13 | 114 | 84
CCc1ccc(CNC(=O)c2nn(-c3ccc(OC)c(Cl)c3)c(=O)c3c2c2ccccc2n3C)cc1 | 105 | -22 | 105 | 89
Cc1ccc(C)c(S(=O)(=O)N2CCN(C(=O)[C@H](C)N3C(=O)C4CC=CCC4C3=O)CC2)c1 (some centres not stated) | x | -33 | 88 | 84
COc1ccc(-n2nc3c(N4CCCC(C(=O)NCc5ccc(C)cc5)C4)nnc(C)c3c2C)cc1 (configuration not stated) | 101 | x | 120 | 93
Cc1ccc(S(=O)(=O)[N-]c2nc3ccccc3nc2-n2cc[n+](C)c2)cc1 | x | 13 | 108 | 101
CC1=C(C(=O)Nc2ccccn2)C(c2ccc(Br)cc2)n2nnnc2N1 (configuration not stated) | 103 | -6 | x | x
CCCCOc1ccc(C(=O)Nc2ccc3c(c2)CCCN3C(C)=O)cc1 | 101 | -6 | x | x
Cc1oc2ncnc(N3CCCC(C(=O)N4CCN(C5CCCCC5)CC4)C3)c2c1C (configuration not stated) | 103 | -15 | x | x
CCc1sc(Nc2cccc(Cl)c2C)nc1-c1cc2cccc(OC)c2oc1=O | 102 | x | 97 | 91
CC1CCCCN1CCNC(=O)Cn1ncc2c1-c1ccccc1OC2 (configuration not stated) | 103 | x | 88 | 88
COc1ccc(N2CCN(C(=O)CCc3nnc4n(C)c(=O)c5sccc5n34)CC2)cc1 | 96 | 10 | 87 | 93
COc1ccc(S(=O)(=O)N2CCN(c3ccccc3F)CC2)cc1-c1noc(C)n1 | 98&113 | 8&0 | 95 | 93
CCOc1ccc(/C=C/c2nc(C#N)c(N3CCN(c4ccccc4)CC3)o2)cc1 | 102 | -20 | 92 | 88
COC(=O)/C=C1\S/C(=N\c2ccccn2)N(c2ccc(Cl)cc2)C1=O | 101 | -15 | 100 | 83
Cc1ccc2[nH]cc(CCNC(=O)CSCc3nnc(C(=O)Nc4ccc(F)cc4)s3)c2c1 | 104 | -32 | x | x
O=C(CN1CCN(S(=O)(=O)c2ccc(F)cc2)CC1)Nc1ccc(F)c(F)c1 | 104 | -34 | 115 | 94
O=C(Nc1ccc(Cl)cc1C(=O)Nc1cccc(Cl)c1)c1ccco1 | 100 | -11 | 115 | 95
COc1cccc(N2CCN(C(=O)c3cc4c(Cl)nc5ccc(C)cc5c4s3)CC2)c1 | 106 | x | 97 | 84
CC1Cc2ccccc2N1C(=O)c1ccc(S(=O)(=O)N2CCCCC2)cc1 (configuration not stated) | x | -17 | 115 | 80
Cc1ccc(S(=O)(=O)CCc2nnc(NC(=O)c3ccc(Br)cc3)s2)cc1 | 107 | -4 | x | x
Cc1nc(-c2cc3ccccc3nc2N2CCN(C(=O)COc3ccccc3)CC2)no1 | 106 | -15 | x | x
CCOc1ccccc1OCCC(=O)O | x | -6 | 101 | 95
O=C(Cn1c(=O)oc2cc(Cl)ccc21)N1CCN(c2ccccc2)CC1 | 106 | 11 | 100 | 100

6 records picked at random from those above, as already listed:
SMILES | GIV-Gai inh | HCMV UL50-53 inh | Sa growth 42C | Sa growth 42C second temp
Cc1ccc(S(=O)(=O)[N-]c2nc3ccccc3nc2-n2cc[n+](C)c2)cc1 | x | 13 | 108 | 101
COc1cccc(N2CCN(C(=O)c3cc4c(Cl)nc5ccc(C)cc5c4s3)CC2)c1 | 106 | x | 97 | 84
O=C(CN1CCN(S(=O)(=O)c2ccc(F)cc2)CC1)Nc1ccc(F)c(F)c1 | 104 | -34 | 115 | 94
CCOc1ccc(/C=C/c2nc(C#N)c(N3CCN(c4ccccc4)CC3)o2)cc1 | 102 | -20 | 92 | 88
Cc1ccc(S(=O)(=O)CCc2nnc(NC(=O)c3ccc(Br)cc3)s2)cc1 | 107 | -4 | x | x
Cc1oc2ncnc(N3CCCC(C(=O)N4CCN(C5CCCCC5)CC4)C3)c2c1C (configuration not stated) | 103 | -15 | x | x

(list continues)
SMILES | GIV-Gai inh | HCMV UL50-53 inh | Sa growth 42C | Sa growth 42C second temp
O=c1n(Cc2ccc([N+](=O)[O-])cc2)c2ccccc2c2nc(-c3ccccc3)nn12 | 111 | x | 108 | 76
CCOc1ccc(N=Cc2sc3ccccc3c2O)cc1 | -15* | -24 | 123 | 77
Cn1c(=O)[nH]c(=O)c2c1nc(N1CCCCCC1)n2CC(O)COc1ccc([N+](=O)[O-])cc1 (configuration not stated) | 100 | -28 | x | x
O=C(Oc1ccccc1)c1cccc(C(=O)Oc2ccccc2)c1F | 104 | -14 | 67 | 100
O=C(Cn1ncc2c1-c1ccccc1OC2)N1CCN(c2ccccc2)CC1 | 103 | -30 | 101 | 85
CCOC(=O)N1CCN(S(=O)(=O)N2CCC(C(=O)O)CC2)CC1 | 103 | -5 | 100 | 97
C=CCc1cccc2cc(C(=O)NC(C)c3ccccc3)c(=O)oc12 (configuration not stated) | 97 | -12 | 96 | 88
O=C(CSc1nc2ccsc2c(=O)n1-c1ccc(Cl)cc1)NCc1ccc(Cl)cc1 | 101 | x | 111 | 88
CC1CCC(C(C)C)C(N)C1 (configuration not stated) | 103 | 7 | 118 | 91
CCOC(=O)c1cc(NC(=O)NC2CCCCC2)c(C)nc1C | 97 | -32 | x | x
CC1CCCCN1CCn1cnc2c([nH]c3ccccc32)c1=O (configuration not stated) | 106 | 4 | 119 | 91
CCN(CC)C(=O)CSc1nc(-c2ccccc2)cc(-c2ccc(OC)cc2)c1C#N | 108 | -15 | 96 | 91
CCCCCNC(=O)c1cc2c(=O)n3ccccc3nc2n1C | 98 | -43 | 111 | 94
COc1ccc(-n2cc(-c3ccccc3)c3c(NCc4cccc(Cl)c4)ncnc32)cc1 | 114 | x | 119 | 97
OC1(Cc2ccccc2)CCCCC1 | 111 | 4 | 106 | 101
O=C(CCN1CCN(C(c2ccccc2)c2ccccc2)CC1)c1ccccc1 | 93 | -15 | 71 | 73
CC1CN(C(=O)c2cccnc2)c2ccccc2NC1=O (configuration not stated) | 97 | -9 | x | x

High-throughput results as filed in PubChem.
